Compound activity deposited in PubChem by Broad Institute.
rRNA inh HTS: selective bacterial rRNA inhibition in E. coli. GFP signal change (wild-type ribosome), % (test concentration not listed). 1.6% of 350,000 active. E. coli WT GFP vs humanized-ribosome RFP mutants, fluorescence, 24 h; active compounds read low; DMSO median 0, no signal -100;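 active = significant combined selectivity score with lowered wild-type GFP, culture density cut under 30%, mutant RFP and density less affected; inactive = any of these conditions unmet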; also: one replicate is shown; some compounds called inactive have numbers as strong as hits
MLL AF4-AF9 inh: inhibitors of human MLL-AF4/AF9 interaction. P42568. inhibition, % at 10 µM. AlphaScreen, biotin-AF4 peptide binding to FLAG-AF9. 0.47% of 350,000 active;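 active = every replicate reaching a set inhibition limit, whatever the replicate mean, cut at about 25% in these data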;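 also: 0% = plate neutral control median and 100% = total signal loss; the record names both 10 and 1 µM as test concentration; the first replicate is given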
Target sequence (P42568 whole entry, looked up): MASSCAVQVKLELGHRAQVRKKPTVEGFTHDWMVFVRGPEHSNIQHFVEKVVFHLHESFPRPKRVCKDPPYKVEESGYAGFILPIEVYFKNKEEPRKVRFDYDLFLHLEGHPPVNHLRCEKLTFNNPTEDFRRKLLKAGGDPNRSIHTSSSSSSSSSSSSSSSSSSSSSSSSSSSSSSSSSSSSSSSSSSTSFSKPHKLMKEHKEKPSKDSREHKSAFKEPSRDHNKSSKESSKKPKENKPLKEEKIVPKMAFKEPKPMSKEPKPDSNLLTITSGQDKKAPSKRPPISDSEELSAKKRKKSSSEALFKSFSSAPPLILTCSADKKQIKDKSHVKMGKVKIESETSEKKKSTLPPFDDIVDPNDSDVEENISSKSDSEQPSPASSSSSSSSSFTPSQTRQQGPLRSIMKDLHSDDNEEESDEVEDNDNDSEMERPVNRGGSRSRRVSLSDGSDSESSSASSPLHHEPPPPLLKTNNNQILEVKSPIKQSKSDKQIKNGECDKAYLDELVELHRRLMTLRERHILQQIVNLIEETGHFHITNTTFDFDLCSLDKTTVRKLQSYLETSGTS
rRNA inh HTS OD600: second read-out of rRNA inh HTS, no call of its own (marks repeat the call); OD600 change, %; measured here: OD600 growth;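 optical density of the mix in the first replicate; 0 = DMSO median and -100 = no signal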
rRNA inh HTS RFP: recorded beside rRNA inh HTS, whose call it bears; RFP signal change, %; measured here: RFP humanized mutant strains;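 first replicate; 0 = DMSO median and -100 = no signal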
Numbers without * were called inactive. Not all compounds are listed; rates above refer to the full screens.

Start of the data: the first 5 entries, ahead of the listing:
SMILES	rRNA inh HTS	rRNA inh HTS OD600	rRNA inh HTS RFP	MLL AF4-AF9 inh
C[C@@H]1CN([C@H](C)CO)C(=O)c2cc(-c3ccccc3F)cnc2O[C@@H]1CN(C)C(=O)C1CCCCC1	-7	1	-2.0	-4.2
O=S(=O)(N[C@H]1CC[C@@H](CCn2cc(-c3cccnc3)nn2)O[C@H]1CO)c1ccccc1	4	10	1.2	-0.7
CN1C(=O)c2cc(NC(=O)C3CCOCC3)ccc2OC[C@H]2O[C@@H](CC(=O)NCC3CC3)CC[C@@H]21	2	16	-0.6	-0.9
C[C@@H]1CN([C@H](C)CO)S(=O)(=O)c2ccc(-c3cccnc3)cc2O[C@@H]1CN(C)CC1CCOCC1	9	6	-5.2	-0.3
O=C(C[C@@H]1C[C@H]2c3cc(NC(=O)c4ccc5c(c4)OCO5)ccc3O[C@H]2[C@@H](CO)O1)NCc1ccccn1	-2	10	-1.0	-1.4

Results, previewed entries included:
SMILES	rRNA inh HTS	rRNA inh HTS OD600	rRNA inh HTS RFP	MLL AF4-AF9 inh
C[C@@H]1CN([C@H](C)CO)C(=O)c2cc(-c3ccccc3F)cnc2O[C@@H]1CN(C)C(=O)C1CCCCC1	-7	1	-2.0	-4.2
O=S(=O)(N[C@H]1CC[C@@H](CCn2cc(-c3cccnc3)nn2)O[C@H]1CO)c1ccccc1	4	10	1.2	-0.7
CN1C(=O)c2cc(NC(=O)C3CCOCC3)ccc2OC[C@H]2O[C@@H](CC(=O)NCC3CC3)CC[C@@H]21	2	16	-0.6	-0.9
C[C@@H]1CN([C@H](C)CO)S(=O)(=O)c2ccc(-c3cccnc3)cc2O[C@@H]1CN(C)CC1CCOCC1	9	6	-5.2	-0.3
O=C(C[C@@H]1C[C@H]2c3cc(NC(=O)c4ccc5c(c4)OCO5)ccc3O[C@H]2[C@@H](CO)O1)NCc1ccccn1	-2	10	-1.0	-1.4
C[C@H](CO)N1C[C@H](C)[C@H](CN(C)Cc2ccc(Oc3ccccc3)cc2)Oc2ccc(NC(=O)Nc3cccc4ccccc34)cc2C1=O	0	-9	1.1	5.4
C[C@@H]1CN([C@H](C)CO)C(=O)Cc2cc(NC(=O)Cc3cn(C)c4ccccc34)ccc2O[C@H]1CN(C)C(=O)NC1CCCCC1	1	-3	-0.5	0.4
C[C@@H]1CN([C@@H](C)CO)C(=O)c2c(c3ccccc3n2C)-c2ccccc2CO[C@@H]1CN(C)S(C)(=O)=O	0	4	1.2	-1.7
C[C@H]1CN([C@@H](C)CO)C(=O)Cc2cc(NC(=O)CCCN(C)C)ccc2O[C@@H]1CN(C)C(=O)NC1CCCCC1	3	5	-4.9	-1.0
CO[C@@H]1CN(C)C(=O)c2ccc(NC(=O)NC(C)C)cc2OC[C@@H](C)N(CCC(F)(F)F)C[C@H]1C	1	-2	0.7	0.8
CCC(=O)Nc1ccc2c(c1)C(=O)N(C)[C@H]1CC[C@@H](CC(=O)NCc3ccc(OC)cc3)O[C@H]1CO2	-1	2	0.2	5.4
COCC(=O)N1C[C@@H](C)[C@@H](OC)CN(C)C(=O)c2ccc(NC(=O)c3cc(C)on3)cc2OC[C@@H]1C	0	-4	0.9	-1.8
Cc1ccccc1-c1ccc([C@@H]2[C@H]3CN(C(=O)c4ccncc4)CC(=O)N3[C@H]2CO)cc1	1	-3	-0.9	0.5
CC(C)C#Cc1ccc2c(c1)O[C@H](CN(C)Cc1ccccn1)[C@@H](C)CN([C@H](C)CO)S2(=O)=O	-33	-47	22	3.6
COCC(=O)Nc1ccc2c(c1)C(=O)N(C)C[C@@H](OC)[C@H](C)CN(C(=O)c1ccccc1F)[C@H](C)CO2	1	0	0.7	1.1
O=C(C(=O)N1CCC(Cc2ccccc2)CC1)c1ccccc1Br	-11	-25	0.5	-4.3
O=C(C[C@@H]1CC[C@H]2[C@@H](COC[C@@H](O)CN2C(=O)c2cnccn2)O1)N1CCN(c2ccccc2)CC1	0	10	0.9	-2.0
COC(=O)C[C@H]1CC[C@@H]2[C@H](COc3ccc(NC(=O)Cc4cccs4)cc3C(=O)N2C)O1	0	-3	1.0	1.0
CCCNC(=O)N(C)C[C@@H]1Oc2ncc(C#CCc3ccccc3)cc2C(=O)N([C@@H](C)CO)C[C@@H]1C	3	12	0.4	3.1
COc1ccc(NC(=O)Nc2ccc3c(c2)C(=O)N([C@H](C)CO)C[C@@H](C)[C@H](CN(C)S(C)(=O)=O)OCCCC[C@@H](C)O3)cc1	5	6	-0.1	1.5

Four of the compounds above, with the structure last.
rRNA inh HTS | rRNA inh HTS OD600 | rRNA inh HTS RFP | MLL AF4-AF9 inh | SMILES
1 | 0 | 0.7 | 1.1 | COCC(=O)Nc1ccc2c(c1)C(=O)N(C)C[C@@H](OC)[C@H](C)CN(C(=O)c1ccccc1F)[C@H](C)CO2
-11 | -25 | 0.5 | -4.3 | O=C(C(=O)N1CCC(Cc2ccccc2)CC1)c1ccccc1Br
0 | 10 | 0.9 | -2.0 | O=C(C[C@@H]1CC[C@H]2[C@@H](COC[C@@H](O)CN2C(=O)c2cnccn2)O1)N1CCN(c2ccccc2)CC1
0 | -3 | 1.0 | 1.0 | COC(=O)C[C@H]1CC[C@@H]2[C@H](COc3ccc(NC(=O)Cc4cccs4)cc3C(=O)N2C)O1

New compounds follow:
SMILES	rRNA inh HTS	rRNA inh HTS OD600	rRNA inh HTS RFP	MLL AF4-AF9 inh
C[C@H](CO)N1C[C@H](C)[C@H](CN(C)S(=O)(=O)c2ccccc2)Oc2c(NC(=O)Nc3cccc4ccccc34)cccc2C1=O	0	4	2.9	0.0
CN1c2ccc(-c3cccc(C#N)c3)cc2[C@H]2[C@H](CCN2C(=O)CN2CCOCC2)[C@H]1CO	3	-2	-3.7	-4.5
Cc1cc(C(=O)Nc2cccc3c2O[C@@H](CN(C)C(=O)Nc2ccc4c(c2)OCO4)[C@@H](C)CN([C@@H](C)CO)C3=O)n(C)n1	-7	-2	2.3	-1.6
C[C@@H]1CN([C@H](C)CO)C(=O)c2cc(-c3cncnc3)cnc2O[C@@H]1CN(C)Cc1ccccc1	1	2	-3.7	-2.4
C[C@@H]1CCCCO[C@H](CN(C)S(C)(=O)=O)[C@@H](C)CN([C@H](C)CO)C(=O)c2cc(NC(=O)Nc3ccccc3)ccc2O1	-1	-1	-0.1	2.3
C[C@H](CO)N1C[C@H](C)[C@@H](CN(C)C(=O)c2cnccn2)Oc2ncc(C#CCN(C)C)cc2C1=O	7	10	-0.3	-4.1
COc1cccc(NC(=O)N2CC3(C2)[C@@H](c2ccccc2)[C@@H](CO)N3C(C)=O)c1	-2	11	1.9	-2.0
C[C@@H]1CCCCO[C@@H](CN(C)CC2CCCCC2)[C@@H](C)CN([C@H](C)CO)C(=O)c2cc(NC(=O)Nc3ccc(F)cc3)ccc2O1	5	-2	9.5	3.5
CCCNC(=O)C[C@H]1CC[C@@H]2[C@@H](COc3ccc(NC(=O)C4CCOCC4)cc3C(=O)N2C)O1	1	3	-2.4	-2.6
COc1ccc2c3c(n(C)c2c1)[C@@H](CO)N(Cc1cccc(F)c1)CC31CCN(C)CC1	4	7	-1.6	-0.4
CC(C)Oc1ccc(CN2CCC2(C)C(=O)Nc2cccc3cccnc23)cc1 (configuration not stated)	14	12	4.5	2.4
Cc1ccc(-c2cnc3c(c2)C(=O)N([C@@H](C)CO)C[C@H](C)[C@@H](CN(C)C(=O)CN(C)C)O3)cc1	5	16	-0.6	-1.8
O=C(C[C@@H]1C[C@H]2c3cc(NC(=O)Nc4ccccc4)ccc3O[C@H]2[C@@H](CO)O1)NCc1cccc(F)c1	-3	-2	0.5	0.1
C[C@H](CO)N1C[C@H](C)[C@H](CN(C)S(=O)(=O)c2cccc(F)c2)Oc2ncc(C#CC3CCCCC3)cc2C1=O	4	-4	-1.4	1.4
COC(=O)[C@]12CCCCC=C1N(Cc1cccc3ccccc13)C(=O)[C@H](CC(=O)N1CCN(C(=O)C3CC3)CC1)C2	-29	-50	-2.8	5.5
COC(=O)C[C@H]1C=C[C@H](NC(=O)c2cccc(F)c2)[C@@H](CO)O1	4	15	1.8	0.9
COc1ccc(S(=O)(=O)N(C)C[C@@H]2Oc3c(NC(=O)c4ccc(-c5nccs5)cc4)cccc3C(=O)N([C@H](C)CO)C[C@H]2C)cc1	-19	-18	1.8	-0.3
C[C@@H]1CCCCO[C@@H](CN(C)C(=O)Nc2ccccc2)[C@@H](C)CN([C@H](C)CO)C(=O)c2cc(NC(=O)c3ccccc3)ccc2O1	0	-10	-2.2	1.1
COc1ccc(NC(=O)c2cc(-c3cc(F)ccc3OCC3CCCO3)n[nH]2)cc1OC (configuration not stated)	-10	-22	5.8	-2.1
C[C@@H]1CN([C@@H](C)CO)C(=O)c2cc(C#Cc3cccnc3)cnc2O[C@@H]1CN(C)Cc1ccc(F)cc1	0	2	-1.0	-0.1
C[C@@H]1CN([C@H](C)CO)C(=O)c2cccc(N(C)C)c2O[C@H]1CN(C)C(=O)NC1CCCCC1	1	4	-2.4	-0.3
CCc1nc(N2[C@H](CO)[C@@H](c3ccccc3-c3ccccc3F)[C@@H]2C#N)sc1C	-1	-22	25	-2.9
C[C@H]1CCCCO[C@@H](CN(C)Cc2ccccc2)[C@@H](C)CN([C@@H](C)CO)C(=O)c2cc(NC(=O)CCC(F)(F)F)ccc2O1	-2	-3	-0.3	-1.0
CC[C@@H]1C=C(C(=O)O)[C@H](c2ccc3c(c2)OCO3)N1S(=O)(=O)c1ccc(C)cc1	-5	4	5.0	0.6
C[C@@H]1CN([C@@H](C)CO)C(=O)c2cc(NC(=O)NC3CCCCC3)ccc2O[C@@H](C)CCCCO[C@H]1CN(C)Cc1ccc(C(=O)O)cc1	0	4	-1.4	0.0
C[C@@H]1CN([C@H](C)CO)C(=O)Cc2cc(NC(=O)Nc3ccc(F)cc3)ccc2O[C@@H]1CN(C)C(=O)NC1CCCCC1	-2	-7	-1.3	-0.2
C[C@H](CO)N1C[C@H](C)[C@H](CN(C)Cc2ccncc2)Oc2ccc(NS(=O)(=O)c3ccccc3)cc2CC1=O	0	2	0.5	-3.2
COc1ccc(NC(=O)N(C)C[C@@H]2Oc3ncc(C#C[C@H](C)O)cc3C(=O)N([C@@H](C)CO)C[C@H]2C)cc1	5	18	-5.0	2.7
Cc1noc(C)c1S(=O)(=O)Nc1ccc2c(c1)C(=O)N([C@H](C)CO)C[C@H](C)[C@H](CN(C)S(=O)(=O)c1c(C)noc1C)OCCCC[C@H](C)O2	2	1	-0.3	3.9
C[C@@H]1CCCCO[C@@H](CN(C)Cc2ccccc2)[C@@H](C)CN([C@@H](C)CO)C(=O)c2cc(NC(=O)NC3CCCCC3)ccc2O1	-2	-8	12	4.0
C[C@H]1CN([C@@H](C)CO)C(=O)c2cc(NS(C)(=O)=O)ccc2O[C@@H]1CN(C)C(=O)Nc1ccccc1	2	6	-1.4	-8.7
C[C@@H]1CN([C@@H](C)CO)C(=O)c2cc(/C=C/c3ccccc3)cnc2O[C@H]1CN(C)Cc1ccccc1	1	-26	22	20
O=S(=O)(Cc1ccccc1)NCC[C@H]1CC[C@H](NS(=O)(=O)c2ccccc2)[C@H](CO)O1	-3	-3	2.4	0.8
COc1cccc(C#Cc2ccc([C@@H]3[C@H]4CN(C(=O)c5ccncc5)CC(=O)N4[C@H]3CO)cc2)c1	2	-47	20	-2.5
COc1ccc(CN(C)C[C@@H]2Oc3ccc(NS(=O)(=O)c4ccc(F)cc4)cc3CC(=O)N([C@@H](C)CO)C[C@@H]2C)cc1	0	-2	5.0	3.8
CCCCNC(=O)C1(C)CCCCCN1Cc1cccc2c(OC)cc(C(=O)OCC)cc12 (configuration not stated)	24	16	1.1	0.7
O=C(N[C@@H]1C=C[C@H](CC(=O)N2CCCCC2)O[C@@H]1CO)c1ccc2c(c1)OCO2	4	1	-1.2	-1.7
CCCNC(=O)C[C@@H]1CC[C@@H]2[C@@H](COc3ccc(NC(=O)Nc4ccccc4F)cc3C(=O)N2C)O1	0	0	0.4	-0.2
C[C@H](CO)N1C[C@H](C)[C@H](CN(C)CC2CC2)Oc2ccc(NC(=O)Cn3cnnn3)cc2CC1=O	5	3	0.7	-0.2
CCCNC(=O)[C@H]1[C@H](CO)[C@H]2Cn3c(ccc(C4=CCCC4)c3=O)[C@H]2N1C(=O)c1cnccn1	1	6	-1.2	-0.7
C[C@H]1CCCCO[C@@H](CN(C)Cc2ccccc2)[C@@H](C)CN([C@@H](C)CO)C(=O)c2cc(NC(=O)Cc3ccccc3)ccc2O1	3	-3	3.9	6.7
C[C@H](CO)N1C[C@H](C)[C@H](CN(C)S(C)(=O)=O)Oc2ncc(-c3cc4ccccc4o3)cc2C1=O	-8	-1	1.2	-0.9
CC(C)NC(=O)Nc1ccc2c(c1)C(=O)N([C@@H](C)CO)C[C@@H](C)[C@H](CN(C)C(=O)Nc1cccc3ccccc13)O2	2	-4	0.4	-0.2
Cc1ccc(S(=O)(=O)N(C)C[C@@H]2Oc3ccc(NC(=O)CCC(F)(F)F)cc3C(=O)N([C@@H](C)CO)C[C@H]2C)cc1	-1	1	-1.8	-0.8
C[C@@H]1CN([C@H](C)CO)C(=O)c2cccc(NC(=O)Nc3ccc4c(c3)OCO4)c2O[C@H]1CN(C)Cc1ccccc1	-5	-22	4.6	10
